# Screening data from PubChem BioAssay.
# Ecoli growth = blocks Escherichia coli growth; OD600, 23 h; hits give low values; OD600 absorbance (concentration not given with the values); 0.21% of 330,000 active;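 active = OD600 absorbance below the run mean of sample wells minus 3.6 SD, in any replicate, cut at about 0.56 in these data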;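 also: stock transfer was 300 nL into about 60 µL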
# A1 inh = inhibitors of the anti-apoptotic protein A1, read as caspase activation; MEF A1-2A-BIM cells, Caspase-Glo 3/7 luminescence, 3 h; percent of clofoctol response, vehicle zero; caspase activation, % (no concentration beside the values); 0.066% of 330,000 active; AID 2462;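 active = over half of replicate activation scores above 10%, or exactly half above 10 with the replicate mean above 10; inconclusive = replicate mean below 10 yet half the replicates above 10; inactive = over half of replicates below 10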;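 also: wells of about 30 µL received 50 nL stock; many hits fall short of the cut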
# Beta2AR agonist = agonists of human beta-2 adrenergic receptor inducing internalization; response, % (no concentration beside the values); Am2.2-beta2AR cells, FAP receptor internalization, flow cytometry; reference of the scale not given here; 0.43% of 340,000 active;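 active = response above a set limit, near 3 SD of response in nonfluorescent compounds, cut at about 42% in these data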;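 also: stock transfer was 100 nL into about 11 µL; a reference agonist was the positive control; negative values mostly stem from fluorescent compounds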
# UCH37 inh = inhibitors of human deubiquitinating enzyme UCH37; inhibition, % (no concentration beside the values); 0.33% of 330,000 active; Q9Y5K5; purified proteasome/UCH37, Ub-AMC cleavage fluorescence;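 active = mean of two replicates above 20%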;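 also: 0% = compound-free wells with enzyme and 100% = wells lacking proteasome; stock transfer was 100 nL into about 20 µL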
# Target sequence (Q9Y5K5 whole entry, looked up): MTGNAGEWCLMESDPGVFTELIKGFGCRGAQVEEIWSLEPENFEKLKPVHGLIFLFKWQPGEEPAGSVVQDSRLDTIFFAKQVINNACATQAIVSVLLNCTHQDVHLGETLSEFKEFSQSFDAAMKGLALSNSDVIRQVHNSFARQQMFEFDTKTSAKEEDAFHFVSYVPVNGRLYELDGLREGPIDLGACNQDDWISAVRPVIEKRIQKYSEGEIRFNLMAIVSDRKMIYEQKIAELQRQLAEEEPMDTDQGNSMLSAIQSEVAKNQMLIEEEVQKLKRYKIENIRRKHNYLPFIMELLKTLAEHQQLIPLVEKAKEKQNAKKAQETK
#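 Schedule: 30 min plus 25 min, room temperature / Material: human UCH37 within purified proteasomes / Technique: AMC fluorescence intensity at 355/460 nm / Buffer or medium: pH 7.4 Tris-HCl (50 mM) with ovalbumin, ATP-MgCl2, DTT / Controls: wells without proteasome as full block, compound-free enzyme plus substrate as uninhibited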
# HNF4A DNA FP = change in binding of human HNF4 alpha to DNA; activity change, % at 10 µM; P41235; 0.3% of 360,000 active; HNF4a-FITC DNA binding, fluorescence polarization, 1 h; AID 1224865; in the data active = activity change above about 30%, passing the limit was not always enough;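 also: controls were the assay level and a saturating level of protein; the project sought stronger binding though the title names inhibitors; some compounds called inactive have numbers as strong as hits; positive values seem to mean higher polarization but the record does not say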
# Target sequence (P41235 whole entry, looked up): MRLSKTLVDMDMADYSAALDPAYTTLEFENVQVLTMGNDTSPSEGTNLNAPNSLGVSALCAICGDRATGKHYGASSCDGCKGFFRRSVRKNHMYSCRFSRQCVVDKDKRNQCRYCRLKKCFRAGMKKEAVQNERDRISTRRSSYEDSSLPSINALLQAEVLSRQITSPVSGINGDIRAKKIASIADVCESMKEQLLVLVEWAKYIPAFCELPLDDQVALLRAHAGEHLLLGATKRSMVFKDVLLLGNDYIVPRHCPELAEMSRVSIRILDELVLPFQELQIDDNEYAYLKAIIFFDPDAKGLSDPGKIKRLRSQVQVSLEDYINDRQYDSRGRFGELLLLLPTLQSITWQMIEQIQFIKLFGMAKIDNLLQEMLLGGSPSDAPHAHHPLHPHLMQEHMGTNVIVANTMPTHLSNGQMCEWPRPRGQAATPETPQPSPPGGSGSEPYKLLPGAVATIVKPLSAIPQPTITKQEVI
# LANA-H2B inh = blocks KSHV LANA binding to histone H2A/H2B; cell-free LANA-H2A/H2B peptide, fluorescence polarization; 0.6% of 320,000 active; AID 2629; inhibition, % (no concentration beside the values); in the data active = inhibition mostly above about 10%, no sharp cut-off; inactive = mostly below about 6.7%;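 also: stock transfer was 7.5 nL into about 10 µL; 0% = median of vehicle wells and 100% = median of positive control wells; one replicate is shown; the record names a cut of 25% in any replicate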
# Vif TR-FRET = inhibitors of Vif binding to APOBEC3G peptide, primary screen, biochemical, TR-FRET, GST-Vif 1-94, biotin-A3G peptide, dose response retest (AID 1117319). TR-FRET GST-Vif / biotin-A3G peptide binding; higher % means a stronger effect; test concentration not given here; strong numbers were not always called active. inhibition, %; hits with a dose series show IC50 in µM. 0.57% of 260,000 active;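 active = above the screen mean plus three standard deviations and confirmed in dose response; inconclusive = results disagree or hit not tested in dose response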;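 also: Vif residues 1-94 fused to GST binding biotinylated APOBEC3G peptide 110-148; 0% = full assay without inhibitor and 100% = GST in place of GST-Vif; retest series ran down from 100 µM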
# Numbers without * were called inactive; ? = inconclusive; nt = not tested or not shown. Rows are unselected; overall some 2.1% were active at least once.
SMILES	Ecoli growth	A1 inh	Beta2AR agonist	UCH37 inh	HNF4A DNA FP	LANA-H2B inh	Vif TR-FRET
O=C(CSc1ccccc1)N1CCCC(N2CCN(c3ccc(F)cc3)CC2)C1 (stereo not drawn)	0.62	1.1	4	1.6	-2.5	-5.7	-1%
Cn1c(=O)c2c(nc3n2CC(CO)O3)n(C)c1=O (stereo not drawn)	0.72	0.6	-3	0.5	0.1	-0.3	-6%
COc1ccc(N2C(=O)C3C4C=CC(C4)C3C2=O)c([N+](=O)[O-])c1 (stereo not drawn)	0.69	-0.6	7	2.9	-2.7	-1.5	-2%
Cc1cc(C2CC(=O)Nc3ccccc3S2)c(C)s1 (stereo not drawn)	0.64	-0.2	3	1.0	-1.5	-1.0	nt
O=C(CNC(=O)c1ccco1)NC1CCCCCC1	0.62	?	5	-0.7	4.3	nt	-8%
Cc1ccc(SCCc2cc[n+](CC(=O)c3ccccc3)cc2)cc1	0.7	0.1	0	1.3	0.8	5.1	nt
CSc1nnc2ccc(-c3ccccn3)nn12	0.71	0.6	-23	-0.7	0.2	-6.1	-1%
CC(Oc1ccc(Cl)cc1)C(=O)N1CCN(C(=O)c2ccco2)CC1 (stereo not drawn)	0.68	-0.1	-45	4.2	0.1	1.4	nt
C[C@H](CO)N1C[C@H](C)[C@@H](CN(C)C(=O)Nc2ccc3c(c2)OCO3)Oc2ccc(NC(=O)Cc3ccccc3)cc2C1=O	nt	-0.1	1	2.5	6.2	-0.8	nt
C=CCn1c(SCc2cc(=O)n3ccsc3n2)nc2sc(C)c(C)c2c1=O	0.68	-0.3	nt	6.7	nt	-3.0	nt
COC(=O)c1cc(C)sc1NC(=O)CCCC(=O)O	0.73	1.2	4	1.5	-0.1	4.6	5%
CC(C)(C)c1ccc(NC(=O)Nc2ccc(F)cc2)cc1	0.67	-0.1	7	-0.6	-1.4	-7.9	-4%
Clc1ccc(Cn2c(CN3CCCC3)nc3ccccc32)cc1	0.65	0.9	nt	2.8	nt	-0.4	nt
Cc1ccccc1OCc1nnc(SC(C)C(=O)O)n1Cc1ccccc1 (stereo not drawn)	0.7	0.1	-5	0.8	-2.4	7.6	4%
O=C(Nc1ccc(C(=O)O)cc1)/C(=C\c1ccccc1)NC(=O)c1ccc(Br)cc1	0.71	0.0	3	4.2	-2.4	-11	-2%
Clc1ccc(C2=Nn3c(nnc3-c3cccnc3)SC2)s1	0.69	0.5	-16	6.9	1.0	-4.4	1%
N#Cc1ccccc1OCC(=O)OCC(=O)NC1CCCC1	0.69	-0.6	4	1.3	-1.6	1.7	nt
CN1CCN(C(c2ccc(F)cc2)c2nnnn2Cc2cccs2)CC1 (stereo not drawn)	0.73	0.2	3	0.8	-2.9	0.4	25%
COc1cccc(C(=O)COc2ccc(NC(=O)c3cccs3)cc2)c1	0.6	-1.8	-8	1.1	-3.9	-5.5	nt
Cc1c(C(=O)OCC(=O)N2CCCC2=O)oc2ccccc12	0.62	-0.9	-3	3.3	-2.6	6.1	0%
Cc1cc(C)cc(OCc2nnc(SCC(=O)c3ccc(Br)cc3)o2)c1	0.72	0.6	12	-0.1	-1.2	7.3	-13%
CN(C(=O)c1cccs1)c1ccc(OCC(=O)N2CCC(C(N)=O)CC2)cc1	0.68	0.1	0	0.3	-0.8	-2.8	-11%
CCC(Cc1ccccc1)NC(=O)CCNS(=O)(=O)c1cc(Br)cnc1N (stereo not drawn)	0.63	-0.4	5	-4.9	-0.3	-1.6	-7%
CC(C)CN(C(=O)CSc1ncnc2ccccc12)C1CCS(=O)(=O)C1 (stereo not drawn)	0.65	1.0	-4	4.2	-0.2	-419	-9%
CN1CCC(N(C)S(=O)(=O)c2ccc(NC(=O)COc3cccc(Cl)c3)cc2)CC1	0.65	0.4	16	-0.8	4.2	1.1	-2%
CC(=O)N1CCN(Cc2ccc(Br)s2)CC1	0.73	1.6	1	-0.3	-0.8	3.9	6%
CCOC(=O)C1CCN(S(=O)(=O)c2cc(C(=O)N3CCCCC3)ccc2OC)CC1	0.69	2.1	11	5.0	-0.8	0.4	nt
CC(Oc1ccccc1)C(=O)N1CCC2(CC1)Oc1ccc(F)cc1C(=O)C21CC(c2cccnc2)=NO1 (stereo not drawn)	0.69	0.0	-7	6.3	0.3	2.3	nt
COC(=O)[C@H](CC(C)C)NC(=O)Cn1cnc2c(SC)nc(N)nc21	nt	0.3	2	nt	2.0	nt	nt
CC(C)CC(NC(=O)C1CCC(C)CC1)C(=O)NCc1cccnc1 (stereo not drawn)	0.71	0.1	0	1.4	11	1.6	22%

# The results go on:
SMILES	Ecoli growth	A1 inh	Beta2AR agonist	UCH37 inh	HNF4A DNA FP	LANA-H2B inh	Vif TR-FRET
COc1ccccc1C(=O)NCCC(=O)N1CCN(C(C)=O)CC1	0.65	0.9	-1	0.7	-1.6	-2.5	7%
S=C(c1ccc(Cl)cc1)N1CCN(Cc2ccccc2)CC1	0.64	-0.6	11	-0.4	0.1	-0.7	1%
Cc1ccc(OCCNC(=O)c2ccc(COc3ccccc3)o2)cc1	0.65	1.3	1	4.6	-2.3	-2.9	-2%
COc1ccc(C(C(=O)NC2CCCC2)N(C(=O)c2ccoc2C)c2ccccc2)cc1 (stereo not drawn)	0.66	-0.2	5	-0.5	-29	-1.3	-9%
Cc1cc(C)n(CCC(=O)N/N=C/c2ccc(O)cc2)n1	nt	-0.1	-1	nt	1.1	4.7	15%
Cc1ccc(S(=O)(=O)N2CCOCC2)cc1NC(=O)Cn1cc(C(F)(F)F)cc(Cl)c1=O	0.69	0.4	-2	-0.6	-1.2	-3.2	16%
COc1cc2[nH]c(=S)nc(NCc3ccccn3)c2cc1OC	0.71	nt	-4	6.7	-19	nt	-2%
CCN1CCN(Cc2oc(CO)cc(=O)c2O)CC1	0.66	1.2	-1	4.3	2.6	-2.8	5%
COc1ccc(N2CCN(C(=O)Cc3ccc(S(=O)(=O)N4CCOCC4)s3)CC2)cc1	0.64	0.6	8	1.0	6.4	5.7	nt
CCNS(=O)(=O)c1ccc(CCC(=O)N2CCc3ccccc3C2)cc1	0.65	0.2	9	0.0	0.9	0.1	nt
Cc1cc2cccc(C)c2nc1SCC(=O)NNC(=O)c1ccco1	nt	-0.1	0	nt	-6.7	4.7	-57%
CCCC(=O)c1c(C)c2ccccc2n1C	0.73	-0.4	-6	2.2	-5.3	-0.1	4%
COc1ccc([N+](=O)[O-])cc1N(CC1CO1)S(=O)(=O)c1ccc(C)cc1 (stereo not drawn)	0.69	-0.4	-3	6.8	-0.7	-0.2	-9%
NC(=NCCc1c[nH]c2ccccc12)NS(=O)(=O)c1ccc2ccccc2c1	0.68	0.0	6	-1.3	-3.4	5.5	0%
Cc1cccc(N2CCN(CC(=O)NCc3ccccc3)CC2)c1C	0.69	0.5	4	-1.4	2.4	1.1	-5%
CC(C)Oc1cc(NC(=O)CSCC(=O)Nc2cccc(C(F)(F)F)c2)c(Cl)cc1Cl	0.67	-1.3	-14	2.4	0.9	-5.8	1%
CCCOc1ccc(C2c3c(oc4cc(C)c(C)cc4c3=O)C(=O)N2CCCN2CCOCC2)cc1 (stereo not drawn)	0.73	-0.1	-5	6.7	6.5	4.8	8%
CCCn1c(C)cc(C(=O)CSc2nc3nc(C)cc(C)n3n2)c1C	0.68	-0.6	-12	6.5	1.4	3.0	14%
COc1ccccc1Nc1nc(-c2sc(NC(=O)c3ccc([N+](=O)[O-])cc3)nc2C)cs1	nt	0.2	nt	nt	nt	-1.1	1%
O=C(Nc1cccc([N+](=O)[O-])c1)Nc1ccc2c(c1)CCC2	0.69	3.3	3	0.6	-1.7	-0.4	nt
CC(CN(C)Cc1ccccc1)OC(=O)c1cccs1 (stereo not drawn)	0.7	0.8	-1	1.4	0.2	1.6	4%
CCn1cnc2c1c(=O)n(CC(=O)OC)c(=O)n2Cc1ccccc1	0.71	0.3	5	1.4	-4.8	-1.1	2%
CCN1CCN(CCCCOc2ccccc2F)CC1	0.66	0.4	-4	-0.8	4.3	2.0	1%
CC1(C(=O)Nc2cccc(S(=O)(=O)N3CCOCC3)c2)Cc2ccccc2C(=O)O1 (stereo not drawn)	0.7	-0.2	3	1.6	1.0	8.7	nt
COc1ccccc1C1C(C(C)=O)=C(C)N=c2s/c(=C\c3cc(OC)c(OC)c(OC)c3)c(=O)n21 (stereo not drawn)	nt	0.9	11	nt	-0.1	4.1	nt
COc1ccccc1-c1cc(N)n[nH]1	0.65	0.4	-20	0.5	0.6	-0.9	-2%
Cc1cccc(NS(=O)(=O)c2cc(C(=O)N3CCN(C)CC3)ccc2C)c1	0.7	0.3	14	1.5	-0.8	4.4	-1%
Cc1cccnc1NC(N)=S	0.69	-0.1	-1	-0.2	-1.4	6.8	-9%
COc1ccc(C(=O)[C@H]2[C@H]3C(=O)N(c4ccccc4)C(=O)[C@H]3C3C=CC=NN32)cc1 (stereo partly drawn)	nt	0.1	6	nt	12	0.7	nt
CCc1cc(C(=O)NNC(=S)Nc2cccc(C)c2)cs1	0.67	-0.4	7	3.1	0.7	0.9	-3%

# Other structures follow:
SMILES	Ecoli growth	A1 inh	Beta2AR agonist	UCH37 inh	HNF4A DNA FP	LANA-H2B inh	Vif TR-FRET
CSCCC(NC(=O)c1ccccc1)C(=O)N/N=C(\C)Cc1ccccc1 (stereo not drawn)	nt	1.7	-1	nt	4.4	-4.2	nt
O=CN(Cc1ccco1)C1(C(=O)NC2CCCCC2)CCCCC1	0.65	0.5	3	-1.6	3.3	-1.2	14%
COc1ccc(-n2c(CCc3ccccc3)nnc2SCC(=O)c2ccccc2)cc1	0.65	-0.5	-10	3.4	2.6	0.4	2%
O=C(CSc1nnc(Cc2ccccc2)o1)NCc1ccco1	0.66	1.1	7	4.1	0.2	8.8	12%
C=CCn1c(SCc2ccccc2F)nc2cc(C(=O)O)ccc2c1=O	0.67	0.1	4	0.6	-0.2	-2.7	nt
Cc1nc2ccccc2c(=O)n1CCCO	0.65	0.3	-1	1.0	-4.0	8.2	-1%
Clc1cccc(NCc2ccccc2)n1	0.69	0.4	-4	3.4	3.5	1.2	nt
CC1CC(C)CN(C(=O)CN2C(=O)NC(c3ccccc3)(c3ccccc3)C2=O)C1 (stereo not drawn)	0.7	1.1	8	1.4	-0.4	2.3	-8%
CCOC(=O)c1cccc(NS(=O)(=O)c2ccc(NC(C)=O)cc2)c1	0.7	-0.6	0	3.7	4.1	2.3	4%
C=C1CSc2nc(=O)c3c4c(sc3n21)CCC4	0.69	-0.6	2	6.1	0.3	-0.6	1%
COc1ccc(C)cc1NC(=O)C1COc2ccccc2O1 (stereo not drawn)	0.68	0.1	10	4.3	-1.0	-2.4	11%
COc1ccccc1CNC(=O)c1ccc(NS(C)(=O)=O)cc1	0.69	1.0	4	0.0	-0.8	0.0	15%
NC(N)=NC(N)=Nc1cccc(Cl)c1	0.69	-0.5	3	1.0	7.7	0.4	5%
CCc1ccc(CNC(=O)C(=O)NCCc2ccc(OC)c(OC)c2)cc1	0.69	-0.8	-15	4.5	-2.9	-1.3	nt
O=C(COC(=O)C1=COCCO1)Nc1ccc(Oc2ccccc2)cc1	0.7	0.2	-11	0.4	0.6	1.5	7%
COc1ccc(N(CC(=O)NC2CC3CCC2C3)S(=O)(=O)c2ccccc2)cc1OC (stereo not drawn)	0.65	0.3	1	3.8	0.9	-1.9	nt
